HCMV UL50-53 inh: inhibitors of HCMV UL50-UL53 interaction, biochemical, HTRF; HCMV UL50-UL53 nuclear egress complex (human cytomegalovirus); inhibition, % (test concentration not listed); normalized percent inhibition; hit rate 0.15% among 190,000;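 active = both replicates at 50% or more, plus weaker picks with an unusually low signal ratio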;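 note: stock transfer was 100 nL into about 20 µL; 0% = negative control wells and 100% = wells with untagged competitor protein; inactives centre near -12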
Sa growth 42C: S. aureus growth inhibition at 42 and 30 °C, primary screen, LtaS inhibitor project, RN4220, two temperatures; AID 720641, 2013; relative growth, % (test concentration not listed); hit rate 0.53% among 170,000; OD600, 20 h, 42 °C; active compounds read low;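 active = growth at 42 °C up to 50% and 20 or more points under that at 30 °C, or under 10% at both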;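 note: 300 nL library stock went into each well; scaled to the means of positive and negative controls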
GIV Gai3 FP: inhibitors of GIV peptide binding to Galpha-i3, primary screen, biochemical, fluorescence polarization, FITC-GIV GBA peptide, rat Galphai3 | Guanine nucleotide-binding protein G(i) subunit alpha-3 (Rattus norvegicus), P08753 | 90 min; active compounds read low; scaled: aluminum fluoride 0%, vehicle 100% | percent of control (FP), % (no concentration beside the values) | hit rate 0.42% among 210,000 | AID 1224905, 2016;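 active = replicate mean at 85% of control or lower, very high polarization wells dropped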;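 note: wells of about 15 µL received 100 nL stock; the first replicate is given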
Target sequence (P08753 whole entry, looked up): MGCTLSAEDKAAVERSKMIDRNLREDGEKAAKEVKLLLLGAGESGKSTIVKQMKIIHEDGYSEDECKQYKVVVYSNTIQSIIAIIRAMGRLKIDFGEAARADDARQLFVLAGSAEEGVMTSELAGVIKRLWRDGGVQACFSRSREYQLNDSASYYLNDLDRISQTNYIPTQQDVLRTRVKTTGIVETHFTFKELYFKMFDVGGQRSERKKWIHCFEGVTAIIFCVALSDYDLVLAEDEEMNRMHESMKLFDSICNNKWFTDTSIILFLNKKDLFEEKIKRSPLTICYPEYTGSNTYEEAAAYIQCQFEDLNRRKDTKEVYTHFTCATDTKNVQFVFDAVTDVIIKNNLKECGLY
Sa growth 42C second temp: second read-out of Sa growth 42C, no call of its own (marks repeat the call); relative growth, %; measured here: growth at 30 °C;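 optical density after 20 h as mean of two plates; 100% = untreated growth and lower means inhibition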
* = called active by the depositor; x = not tested or not shown.

SMILES	HCMV UL50-53 inh	Sa growth 42C	Sa growth 42C second temp	GIV Gai3 FP
Cc1cnc(C(=O)OCc2ccc(Br)cc2)cn1	-14.2	103.1	91.9	x
Cc1ccc2c(=O)cc(C(=O)Nc3ccc(S(=O)(=O)N4CCCCC4)cc3)oc2c1	-6.4	102.9	92.2	106.1
OCCCNc1nnc(-c2ccccc2)c2ccccc12	-32.3	68.3	91.5	x
CC1=C(C(=O)Nc2ccc(C)cc2Cl)C2(CCCCCC2)OC1=O	x	99.0	110.4	102.5
CCOC(=O)N1CCN(C(=O)CCCn2c(=S)[nH]c3ccc(Br)cc3c2=O)CC1	x	96.0	80.8	101.5
Cc1cccc(N2C(=O)c3cccc4c(N5CCNCC5)ccc(c34)C2=O)c1	-97.6	91.7	79.1	87.8
O=C(Nc1cccnc1)c1cc(-c2ccccc2Cl)nc2ccccc12	-17.0	x	x	103.7
Cc1oc2cc(OCC(=O)O)ccc2c(=O)c1-c1ccc(Br)cc1	-2.3	97.3	83.1	101.6
COc1cc(OC)cc(C(=O)Nc2ccc(-c3nc4cc(C(C)C)ccc4o3)cc2)c1	-11.5	90.6	68.4	103.7
O=C(COC(=O)C1CCN(S(=O)(=O)c2ccc3c(c2)OCCO3)CC1)Nc1cc(C(F)(F)F)ccc1Cl	-1.0	95.2	96.0	x
CCOc1nc(SC)nc2sc3c(c12)CC(C)(C)OC3	-1.7	104.9	101.0	106.3
Clc1ccc(Cl)c(-c2ccc(CNCc3cccs3)o2)c1	4.7	x	x	104.3
CC1=C(C(=O)OCc2ccc3c(c2)OCO3)C(c2cccc3ccccc23)NC(=O)N1 (configuration not stated)	-7.0	x	x	99.2
C=CCc1cc(/C=C2\C(=O)NC(=S)N(c3cccc(OCC)c3)C2=O)cc(OCC)c1O	-4.0	x	x	147.8
O=C(Nc1ncn(Cc2ccccc2)n1)c1cc([N+](=O)[O-])cc([N+](=O)[O-])c1	-175.9	x	x	98.8
COc1cc(OC)c(NC(=O)c2ccc3c(SCC(=O)O)c4c(nc3c2)CCCC4)cc1Cl	-2.0	98.8	73.5	105.9
COc1ccc2nc(NC(=O)c3ccc(-n4nc(C)c(-c5ccccc5)c4NC(C)=O)cc3)sc2c1	-14.6	x	x	111.0
CC1(C)CC(=O)C2=C(C1)N(c1ccc(S(N)(=O)=O)cc1)C(N)=C(C#N)C2c1ccco1 (configuration not stated)	-6.5	95.4	84.5	121.4
COc1ccc(-n2c(SC)nc3sc4c(c3c2=O)CC(C)(C)OC4)cc1	-24.7	x	x	104.9
COc1cccc(CNC(=O)CCS(=O)(=O)c2cc3c4c(c2)CCN4C(=O)CC3)c1	x	94.5	91.9	102.4
Clc1ccc(OCCn2ccnc2)c(Br)c1	-9.7	3.1*	4.8*	105.0
COc1c(F)c(F)c(C(=O)Nc2ccc(-c3nc4ccccc4o3)cc2)c(F)c1F	-20.4	92.6	102.7	108.6
COc1cc(NC(C)C(=O)N2CC(C)CC(C)C2)c(OC)cc1Cl (configuration not stated)	-22.4	84.5	89.7	x
CC(C)CNC(=O)c1cc(-c2ccccn2)nc2ccccc12	-37.1	x	x	103.7
O=C(Nc1c[nH]c(=O)[nH]c1=O)C1CCCO1 (configuration not stated)	-38.6	107.4	89.6	100.3

Later entries:
SMILES	HCMV UL50-53 inh	Sa growth 42C	Sa growth 42C second temp	GIV Gai3 FP
COC(=O)c1nnn(CC(=O)Nc2ccc3c(c2)OCO3)c1C(=O)OC	-3.2	86.7	90.6	103.5
O=c1ccc(-c2ccc(S(=O)(=O)NCCc3ccccc3)s2)n[nH]1	-7.7	85.3	91.1	98.2
CC(CN1CCCC1)OC(=O)c1cccc(Br)c1 (configuration not stated)	-11.6	109.6	83.3	103.0
Cc1c(Cl)cccc1NC(=O)NCc1c(-n2cccc2)sc2c1CCCC2	-10.2	118.7	100.7	101.9
Cc1ccc2occ(CC(=O)Nc3ccccc3C)c2c1	-23.0	x	x	101.9
CCOC(=O)Cn1nc(C)c(NC(=O)COc2ccc(C)c(C)c2)c1C	-3.7	110.6	90.7	103.4
O=C(COC(=O)c1ccc(CO)cc1)Nc1ccccc1	-10.8	92.8	90.4	x
CCCCN(S(=O)(=O)c1ccccc1)S(=O)(=O)c1ccccc1	-23.2	95.8	90.2	x
CC(COc1nnc(-c2cccs2)o1)NC(=O)Cn1nnc2ccccc2c1=O (configuration not stated)	-44.0	92.0	76.6	106.3
CCOC(=O)c1[nH]nc(C(=O)c2ccc(Br)cc2)c1O	-29.0	104.9	81.6	94.4
NS(=O)(=O)c1ccc(NC(=O)N2CCCCC2)cc1	-10.3	108.8	94.4	103.0
CCc1ccc(NC(=O)C2CCN(S(=O)(=O)c3ccc4c(c3)S(=O)(=O)N=CN4)CC2)cc1	-29.7	x	x	101.5
CCOc1ccc(NC(=O)C2CC(=O)OC2c2ccccc2)cc1 (configuration not stated)	-5.3	114.5	101.3	106.9
Cc1ccc(-n2c(=O)c3cccnc3n2CC(=O)Nc2ccccc2C(F)(F)F)cc1C	x	100.1	78.7	102.0
CCc1c(C)nc2cc(-c3cc(OC)cc(OC)c3)nn2c1NCCCN(CC)CC	0.6	101.8	72.6	104.7
CCOc1cc(/C=C2\COc3ccccc3C2=O)ccc1OCC(=O)N(C)C	2.8	65.2	69.3	x
Cn1cc(C(=O)Nc2ccccc2F)c2[nH]c(=O)n(-c3ccccc3)c(=O)c21	-13.9	x	x	100.2
CS(=O)(=O)CC(=O)c1ccc(F)cc1	-15.6	x	x	100.9
CC/C(=N/O)C(=O)c1ccc(Br)cc1	2.1	116.9	112.2	x
COCCn1cnnc1SCC(=O)O	-0.9	109.9	96.1	x
CC(=O)N(Cc1ccco1)C1(C(=O)NC2CCCC2)CCCCC1	-1.1	107.6	90.1	95.5
COC(=O)Cc1ccc(C#N)n1C	-29.3	117.4	87.2	x
CCC(=O)Nc1ccccc1-c1nnc(SC(CC)C(=O)Nc2ccc(C)cc2C)[nH]c1=O (configuration not stated)	-5.6	x	x	100.2
O=C(OCC(=O)N1CCN(S(=O)(=O)c2ccccc2)CC1)C1CCCCC1	0.7	88.5	91.6	x
CCN1C(=O)CC(NC2CCN(C(=O)c3cccs3)CC2)C1=O (configuration not stated)	-28.0	107.4	97.1	104.9

The listing continues:
SMILES	HCMV UL50-53 inh	Sa growth 42C	Sa growth 42C second temp	GIV Gai3 FP
O=S(=O)(c1ccccc1)c1nc(-c2cccs2)oc1NCc1ccc(F)cc1	7.5	x	x	107.3
CC(C)(CO)N=Cc1c(O)[nH]c2ccccc12	-24.2	123.5	111.1	103.7
c1ccc(-c2ccc3c4ccccc4cc-3o2)cc1	-24.7	107.1	94.9	100.0
Cc1ccc(C(=O)/C=C/c2cn(CC(O)CN3CCCCCC3)c3ccccc23)cc1 (configuration not stated)	-27.9	129.0	48.7	121.9
O=C(NC(=S)NC1CCSC1=O)c1ccco1 (configuration not stated)	-24.6	96.7	100.3	101.3
CCOCCCNc1nc2cc(OC)c(OC)cc2c2nc(-c3ccccc3)nn12	-4.3	95.3	73.3	102.4
CCc1noc2nc(C)nc(Nc3cccc(F)c3)c12	-27.4	x	x	101.3
CC(C)NC(=O)COc1ccc(-c2ccccc2)cc1	-8.1	95.0	97.9	x
COc1ccccc1C(=O)Nc1ccc(-c2nc3ccccc3s2)c(Cl)c1	5.3	x	x	111.0
Cc1cc(S(=O)(=O)C(CNC(=O)c2ccccc2)c2cccnc2)ccc1F (configuration not stated)	-19.7	x	x	105.4
Cc1cccc(-n2ccnc2SCC(=O)Nc2ccccc2C(F)(F)F)c1	x	96.0	82.8	98.3
COc1ccc(-c2nn[nH]n2)cc1OC	0.9	107.3	89.8	99.7
O=C(O)c1cc(=O)n(CN2CCC(Cc3ccccc3)CC2)c(=O)[nH]1	-0.6	83.9	91.8	x
CN(C)CCn1c2c(c(SCC(=O)NCc3ccccc3)nc1=O)CCCC2	-33.4	90.7	83.1	100.8
O=S(=O)(c1ccc(F)cc1)N1CCc2[nH]c3ccc(F)cc3c2C1	-16.0	93.2	94.5	104.9
CSc1ncc(C(=O)NCc2cccc(F)c2)c(-c2ccccc2)n1	x	124.2	81.0	96.7
O=C(NCCc1nnc2ccc(NCc3ccc(F)cc3)nn12)c1ccccc1F	1.9	x	x	106.1
Cc1cccc(C)c1-n1ncc(C(=O)NCCCN2CCCCC2)c1C1CCN(C(=O)OC(C)(C)C)CC1	x	88.8	87.9	108.3
O=c1[nH]n(CNc2ccc(F)cc2)c(=O)c2ccccc12	6.4	97.5	87.0	x
CCN(CC)S(=O)(=O)c1ccc2c(c1)N(CC(=O)Nc1ccccc1F)C(=O)C1CCCN21 (configuration not stated)	-28.1	99.6	78.4	110.3
O=c1c(-c2cc(-c3ccccc3)nc3c2COc2ccc(Cl)cc2-3)coc2ccc(F)cc12	2.2	93.5	88.1	106.2
CC(NCCN1C(=O)S/C(=C\c2ccccc2F)C1=O)=C(C#N)C#N	-10.8	90.5	92.3	x
CCN(CC)S(=O)(=O)c1ccc2c(c1)nc(SCC(=O)NC1CC1)n2-c1ccccc1OC	-32.7	121.0	97.4	x
Cc1nn(CCCC(=O)NCCc2cccs2)c(=O)c2c1sc1ccccc12	8.4	104.0	86.5	108.3
COc1cc(NS(=O)(=O)c2ccc(NC(=S)NC(=O)c3ccco3)cc2)ncn1	3.9	44.7	55.4	x

Filtered by structure, the compounds so far containing an aryl thioether with sulfur outside any ring.
SMILES	HCMV UL50-53 inh	Sa growth 42C	Sa growth 42C second temp	GIV Gai3 FP
CCOc1nc(SC)nc2sc3c(c12)CC(C)(C)OC3	-1.7	104.9	101.0	106.3
COc1cc(OC)c(NC(=O)c2ccc3c(SCC(=O)O)c4c(nc3c2)CCCC4)cc1Cl	-2.0	98.8	73.5	105.9
COc1ccc(-n2c(SC)nc3sc4c(c3c2=O)CC(C)(C)OC4)cc1	-24.7	x	x	104.9
COCCn1cnnc1SCC(=O)O	-0.9	109.9	96.1	x
CCC(=O)Nc1ccccc1-c1nnc(SC(CC)C(=O)Nc2ccc(C)cc2C)[nH]c1=O (configuration not stated)	-5.6	x	x	100.2
Cc1cccc(-n2ccnc2SCC(=O)Nc2ccccc2C(F)(F)F)c1	x	96.0	82.8	98.3
CN(C)CCn1c2c(c(SCC(=O)NCc3ccccc3)nc1=O)CCCC2	-33.4	90.7	83.1	100.8
CSc1ncc(C(=O)NCc2cccc(F)c2)c(-c2ccccc2)n1	x	124.2	81.0	96.7
CCN(CC)S(=O)(=O)c1ccc2c(c1)nc(SCC(=O)NC1CC1)n2-c1ccccc1OC	-32.7	121.0	97.4	x

More records follow:
SMILES	HCMV UL50-53 inh	Sa growth 42C	Sa growth 42C second temp	GIV Gai3 FP
O=C(NCc1ccc(S(=O)(=O)NCCN2CCOCC2)s1)c1ccccc1	-26.3	110.0	81.8	99.3
O=C1C2C3C=CC(C3)C2C(=O)N1CCC1=CCCCC1 (configuration not stated)	x	92.6	91.2	101.5
CS(=O)(=O)c1ccc2nc(NC(=O)CCCN3C(=O)c4cccc5cccc(c45)C3=O)sc2c1	-33.7	x	x	100.9
Cc1cc(C)nc(NS(=O)(=O)c2ccc(NC(=O)CSc3nc(-c4ccccc4)c(-c4ccccc4)o3)cc2)n1	0.0	x	x	100.4
CCc1ccc(-n2cc3c(c(C#N)c2=N)CC(C)(C)CC3=O)cc1	x	94.1	94.2	104.1
COC(=O)c1sc(SC)c(C#N)c1-c1ccc(Br)s1	-49.7	99.0	92.7	105.0
COc1cc(-c2nc3ncccn3c2Nc2ccc(OC)c(OC)c2)ccc1O	-55.1	83.5	83.7	104.3
COCCn1ccc2nc(C)c(C(=O)Nc3ccccc3)cc2c1=O	-26.9	100.1	83.2	101.5
Cc1ccccc1Nc1c(-c2ccc(Cl)s2)nc2cccc(C)n12	-9.3	116.1	92.8	97.8
CC1CC(C)CN(CCCNC(=O)c2cc3c(=O)[nH]c4ccccc4c3s2)C1 (configuration not stated)	x	123.1	100.5	107.1
O=C(Cn1c(SCCOc2ccc(Cl)cc2)nc2ccccc21)N1CCCCC1	-23.0	106.8	81.6	102.4
CCCSc1nsc(NC(=O)c2cnc3ccccc3n2)n1	-48.4	75.7	57.0	x
O=C(CSc1nnc(C2CC2)n1C1CC1)c1ccc2c(c1)OCO2	-13.3	108.9	65.6	x
O=C(COc1ccccc1)N1CCCCCCC1	-30.6	118.4	105.7	104.0
NC(=O)C1Cc2ccccc2CN1C(=O)CSc1nnc(-c2ccco2)n1Cc1ccccc1 (configuration not stated)	-20.1	101.0	67.1	x
O=C(CCCN1C(=O)C(c2ccccc2)Oc2cccnc21)Nc1ccc(Br)cc1F (configuration not stated)	x	110.1	89.0	99.9
COc1cccc(-n2c(N)cc(=O)nc2SCC(=O)N2CCN(c3ccccc3)CC2)c1	-0.3	107.6	78.7	103.7
Cc1ccc(NC(=O)c2n[nH]nc2Nc2ccccc2)c(Cl)c1	-26.3	x	x	104.4
Cc1cc(Br)ccc1NC(=O)CC1CCCCC1	4.8	72.7	92.3	x
COc1cccn(Cc2nnc(SCc3ccc(Cl)cc3)n2C)c1=O	-8.3	96.8	94.9	105.2
NS(=O)(=O)c1ccc(NC(=O)c2cnc3ccccn3c2=O)cc1	-14.3	95.3	88.8	94.6

Bioassay records from PubChem BioAssay.

Random draw from the library; overall some 0.8% were active at least once.
